NPYLR7 agonist: activates Aedes aegypti NPYLR7 receptor; hit rate 0.15% among 270,000; HEK293T NPYLR7/Galpha15, GCaMP6s calcium fluorescence; activation, % at 10 µM; in the data active = activation above about 40%;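 also: 0% = vehicle and 100% = reference agonist at the receptor; some compounds past the cut are filed as inactive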
NPYLR7 agonist max-min: also measured in NPYLR7 agonist; calls as there; activation, %; measured here: Max-Min RFU normalised activation; some inactives read as strong as hits;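 span of the calcium signal over five minutes; 0% = vehicle and 100% = native peptide agonist; compound fluorescence can raise it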
* = called active by the depositor; & = joins results of further samples.

SMILES	NPYLR7 agonist	NPYLR7 agonist max-min
CC(C)S(=O)(=O)Oc1ccc(CN(Cc2ccc(F)cc2)C(=O)c2ccco2)cc1	4	7
Cc1ccc(Nc2nc(N)nc(COc3ccc(F)cc3)n2)cc1	14	5
COc1cc(O)c(C(=O)/C=C/c2ccc(OC)c(O)c2)c(OC)c1	-2	-9
Cc1ccc(O)c(CN(C)CCCn2nc(C)cc2C)c1	0	-1
CC(C)CCNC(=O)NC(=O)CN1C(=O)NC2(CCCCC2)C1=O	3	-1
CN(CCC1CCOCC1)C(=O)CC1C(=O)NCCN1Cc1cccc2ccccc12 (stereo not given)	2	-1
Cc1ccc(-n2nc(-c3ccccc3Cl)cc2C(=O)N2CC(C)OC(C)C2)c(C)c1 (stereo not given)	0	-6
N=c1oc2c3c4c(cc2cc1C(=O)Nc1ccc(F)c(Cl)c1)CCCN4CCC3	7	6
CCC(=O)Nn1cnc2scc(-c3ccc(C)cc3)c2c1=O	2	1
COc1ccccc1C(=O)Nc1ccc(C2SCC(=O)N2c2cccc(F)c2C)cc1 (stereo not given)	19	27
N#CC1(c2ccc(OCc3ccccc3)cc2)CC(=O)N1Cc1ccccc1 (stereo not given)	-7	-11
CCOc1cc(C)c(S(=O)(=O)N2CCCC2)cc1C(C)C	3	2
COc1cccc2sc(N(Cc3cccnc3)C(=O)C3CCCCC3)nc12	-10	-3
c1cc(N2CCOCC2)ccc1Nc1c2c(nc3nncn13)CCC2	1	1
CCOC(=O)C12C(=O)OC(C)(C)C1C2(CC)C(=O)c1ccc(F)cc1 (stereo not given)	-11	-18
COc1ccc(CCN(C)S(=O)(=O)c2ccc(OC)c(N3CCN(C(=O)c4cc(F)ccc4F)CC3)c2)cc1OC	21	14
COC(=O)CNCc1ccc(F)c(F)c1	1	1
COc1ccc(CCN(C)C(=O)CCCSc2nnc(Cc3ccccc3)n2-c2ccc(C)cc2)cc1OC	4	11
Cn1nc(C2CC2)c2c1NC(=O)CC2c1ccc(CN2CCCCC2)s1 (stereo not given)	9	9
COc1ccc(C(=O)N2C(C(=O)NC3CC3)COC23CCN(C(=O)c2ccccc2Cl)CC3)cc1 (stereo not given)	0	0
COc1ccc(CN2CCNC(=O)C2CC(=O)NCCc2c[nH]c3ccccc23)c(OC)c1 (stereo not given)	26	9
CC(=O)c1c(C)nn(CC(O)COc2ccc3c(c2)CCC3)c1C (stereo not given)	-7	-8
COc1ccc(C=CC(=O)Nc2sc3c(c2C(=O)NC2CCS(=O)(=O)C2)CCCC3)cc1 (stereo not given)	-6	-13
COc1cc(CN2CCCC(OCc3ccccn3)C2)cc2c1OCO2 (stereo not given)	-5	-4
Cn1c(CC(N)=S)nc2ccccc21	8	7
Cc1cc(C(F)(F)F)nc(CNC(=O)c2cccc3ccnn23)n1	5	4
CCOCCn1cc(C2CCN(S(=O)(=O)c3ccccc3S(C)(=O)=O)CC2)c2ccccc21	7	5
CCC(C)n1c(SCC(=O)NCC(F)(F)F)nnc1-c1ccccc1 (stereo not given)	-8	-7
CCCc1cc(NC)n2ncc(-c3ccccc3)c2n1	5	4
CSC(=C(C#N)C#N)N1CCOCC1	-1	-3
O=C(CN1CCCC(c2nc3ccccc3s2)C1)NC(=O)NC1CCCC1 (stereo not given)	-3	-3
Cc1nc(C(=O)N(C)C)ccc1C(=O)OCc1ccc(Cl)s1	3	2
CCC(C)c1ccccc1OC(=O)c1cc(OC)c(OC)c(OC)c1 (stereo not given)	14	4
c1ccc2c(c1)CCN(c1ncnc3sc4c(c13)CCCC4)C2	0	-1
O=C(c1ccco1)N1CCC(C(=O)N2CCN(S(=O)(=O)c3ccccc3F)CC2)CC1	7&3	2&5
COc1c(C)cc(C(=O)N2CCOC(Cc3ccccc3)C2)cc1C (stereo not given)	34	32
O=c1c2ccccc2[nH]c(=S)n1C1CC1	4	8
COc1ccc(CNC(=O)Cn2nc([N+](=O)[O-])c(Cl)c2C)cc1	-3	-7
NC(=O)c1c(F)cccc1-n1ccc(-c2cccnc2)n1	10	-2
CCc1cc(=O)[nH]c(-n2nc(C)cc2NC(=O)c2ccc([N+](=O)[O-])cc2)n1	6	2
CC(c1ccc(-c2coc3ccccc3c2=O)cc1)N1CCOCC1 (stereo not given)	-6	-11
O=C(Nc1cccc(-c2ccc3c(c2)OCCO3)n1)c1cn[nH]n1	3	-3
CC(C)c1noc(C2CCCN(S(=O)(=O)NCc3ccccc3)C2)n1 (stereo not given)	0	1
CN1C[C@H](NC(=O)Nc2ccccc2Oc2ccccc2)C[C@H]1CO	1	0
COC(=O)CCCCC(=O)N1CCC(n2c(=O)oc3ccc(OC)cc32)CC1	23	15
COc1ccc(-c2coc3c(O)c(OC)ccc3c2=O)cc1	-13	-16
COCCC(=O)N1CCc2c([nH]c3ccccc23)C1c1cccc(C)n1 (stereo not given)	-1	-3
CCOc1ccccc1NC(=O)c1cccc(CN2CCCC2=O)c1	5	2
O=C1CCc2cc(-c3csc(=Nc4ccccc4C(F)(F)F)n3CCNc3ccc([N+](=O)[O-])cn3)ccc2N1	-3	-7
COc1ccc(N2C(=O)CC(NCc3ccc(Cl)cc3)C2=O)cc1 (stereo not given)	-3	-3
FC(F)(F)c1cccc(Cc2noc(CN3CCC(Oc4cccnc4)CC3)n2)c1	27	12
CCCC(=O)C1=C(c2ccc(Br)cc2)N(C(=O)CCC)n2c(C)nnc2S1	8	6
O=C(Nc1ccc(Cl)cc1Cl)c1c(O)c2ccccc2[nH]c1=O	0	0
CCOC(=O)c1c(CSCc2ccccc2)n(C)c2cc(Br)c(OC)cc12	-7	-8
CCN(CC)CCOCCOC(=O)C1(c2ccccc2)CCCC1	-11&-5&-14&-5&2	-16&-10&-21&-10&8
CCC(C)C(NC(=O)Nc1ccc(OC)cc1)C(=O)Nc1nnc(-c2ccc(Br)cc2)s1 (stereo not given)	15	20
Cc1nc(CN(C)CC(C)(C)O)nc2ccccc12	6	5
Cc1ccc(S(=O)(=O)Nc2cc(S(=O)(=O)O)c(N)c3c2C(=O)c2ccccc2C3=O)cc1	8	6
COCCN(C)c1ncnc(N2CCN(C)CC2)c1N	25	22
COc1ccc(C(=O)N2CCc3c(nc(C)[nH]c3=O)C2)c(OC)c1OC	-2	10

Profiles, looked up by structure. Order of screens: NPYLR7 agonist, NPYLR7 agonist max-min
Listed for CC(=O)c1c(C)nn(CC(O)COc2ccc3c(c2)CCC3)c1C (stereo not given) → -7, -8
Listed for COc1ccc(C=CC(=O)Nc2sc3c(c2C(=O)NC2CCS(=O)(=O)C2)CCCC3)cc1 (stereo not given) → -6, -13

Returning to the listing, repeating the 3 entries before the break.
SMILES	NPYLR7 agonist	NPYLR7 agonist max-min
Cc1ccc(S(=O)(=O)Nc2cc(S(=O)(=O)O)c(N)c3c2C(=O)c2ccccc2C3=O)cc1	8	6
COCCN(C)c1ncnc(N2CCN(C)CC2)c1N	25	22
COc1ccc(C(=O)N2CCc3c(nc(C)[nH]c3=O)C2)c(OC)c1OC	-2	10
Cc1ccc(-c2nc(C=Nc3cccc(C(=O)N(C)c4ccccc4)c3)c(O)o2)cc1	-3	-6
Cc1ccc(C2=N/C(=C/C=C/c3ccccc3)C(=O)O2)cc1C	-5	-8
COc1cccc(N2CCN(C(=O)c3cc(=O)c(OC)co3)CC2)c1	12	3
O=C(Nc1nccs1)c1cc(C2CC2)n(C2CCS(=O)(=O)C2)n1 (stereo not given)	0	-2
C=CCn1c(=NC(=O)CN2C(=O)c3ccccc3C2=O)sc2cc3c(cc21)OCO3	1	-2
CCCc1cc(C(=O)N(C)CC2CCN(CCc3ccc(Cl)cc3)CC2)no1	3	2
O=C(Nc1ccc(Br)cc1Cl)N[C@@H](Cc1ccccc1)C(=O)N1CCC(C(=O)N2CCCCC2)CC1	33	33
CC(C(=O)NCCc1cccs1)N1CCC(n2ccnc2)CC1 (stereo not given)	1	0
COc1ccc(CCNC(=O)c2ccccc2N2CCC(NC(=O)c3ccc(C(F)(F)F)cc3)CC2)cc1OC	-1	3
COc1ccc(C(=O)N=Nc2c(O)n(C)c3ccc(Br)cc23)cc1OC	-3	-12
COc1ccc(C)cc1NC(=O)Cn1ccnc1-c1nccn1C	6	-5
CCOc1ccc2cc(C(=O)NCc3ccccc3)c(=N)oc2c1	-6	-10
COC(=O)c1ccc(CN2C(=O)C(Cc3ccccc3)ON=C2C2CCCC2)o1 (stereo not given)	-1	3
COc1ccc(C(=O)N/N=c2\oc3ccc(OC)cc3cc2-c2nc3ccccc3[nH]2)cc1	8	-1
Cc1cc(=O)n2[nH]c(NC(=O)c3ccccc3C)nc2n1	0	-7
COCCN(Cc1c(-c2ccccc2)noc1N1CCSCC1)C(=O)Nc1cccc(Cl)c1	10	13
CSc1ccc(-c2ccncc2)nn1	4	-8
c1ccc(CN(Cc2nc(-c3ccccc3)no2)CC2CC2)cc1	-7	-8
CCCc1nc(N2CCN(Cc3ccc(OC)cc3)CC2)c2cnn(-c3ccccc3)c2n1	8	9
CCc1cnc2c(c1NCCN1CCOCC1)c(=O)n(C)c(=O)n2C	9	8

Five compounds drawn at random from those above, as already listed:
SMILES	NPYLR7 agonist	NPYLR7 agonist max-min
CCCc1nc(N2CCN(Cc3ccc(OC)cc3)CC2)c2cnn(-c3ccccc3)c2n1	8	9
CCc1cnc2c(c1NCCN1CCOCC1)c(=O)n(C)c(=O)n2C	9	8
O=C(Nc1nccs1)c1cc(C2CC2)n(C2CCS(=O)(=O)C2)n1 (stereo not given)	0	-2
O=C(Nc1ccc(Br)cc1Cl)N[C@@H](Cc1ccccc1)C(=O)N1CCC(C(=O)N2CCCCC2)CC1	33	33
CC(C(=O)NCCc1cccs1)N1CCC(n2ccnc2)CC1 (stereo not given)	1	0

Next section:
SMILES	NPYLR7 agonist	NPYLR7 agonist max-min
COc1ccccc1CN(C(=O)c1ccc(C)c(N2CCNC2=O)c1)C1CC1	12	8
Cc1cccc2cc(C(=O)NCCCCN3CCCC(C)C3)oc12 (stereo not given)	8	5
CNC(=O)CN(C(=O)C1CSc2ccccc21)c1ccccc1C (stereo not given)	6	3
COc1ccc(OC)c(-c2nc3cccc(C)n3c2Nc2c(C)cccc2C)c1	-10	-6
COC12c3c(C)cc(O)c4c3C(COC4=O)C(=O)C1C13COC(=O)c4c(O)cc(C)c(c41)C(=O)C2C3OC(C)=O (stereo not given)	0	-9
Cc1nc2sccn2c1-c1nnc(SCC(=O)N2CCc3ccccc32)n1C	-7	-5
CCOC(=O)Cc1nnn(CC(=O)OCC)n1	-1	-5
O=C(c1cn2cc(Cl)cnc2n1)N1CCCC(N2CCCC2)C1 (stereo not given)	5	1
Cc1ccccc1NCCC(=O)Nc1ccc(C)c(S(=O)(=O)N2CCCCC2)c1	5	0
COc1ccc(NC(=O)c2ccc(CSc3nnc(Cc4ccccc4)n3-c3ccccc3OC)cc2)cc1	14	12
CN(C)c1ccc(C=NC2=NN(c3ccccc3)CC2)cc1	2&-4	6&-6
COCc1nnc(NC(=O)c2ncn[nH]2)s1	0	-1
CCN(CC)C(=O)C(C#N)=Cc1ccc2c(c1)OCCO2	1	0
O=C(COc1ccccc1)Nc1nnc(Cc2ccccc2F)s1	-10	-13
Cc1nn(C)cc1CN1CCCC(CCc2c(F)cccc2F)C1 (stereo not given)	8	4
O=C(c1cccc2ccnn12)N1CCCC1CCc1ccccc1 (stereo not given)	-1	-8
CN(C)C1CCCN(C(=O)c2ccccc2Cc2ccc(Cl)cc2)CC1 (stereo not given)	-2	-4
C=CCn1c(SCC#N)nc2sc3c(c2c1=O)CCCC3	1	1
COc1ccc(CNC(=O)CNS(=O)(=O)c2ccc(F)c(F)c2F)cc1	7	6
C=CCN1CCc2cc(OC)c(OC)cc2C1CNC(=O)c1cccc(F)c1 (stereo not given)	25	27
COc1ccc(NC2CCCN(C(=O)C3=CCCCC3)C2)cc1OC (stereo not given)	5	2
Cc1nn(C)c(C)c1C(=O)Nc1cccc2c1CCCC2	9	7
COc1ccc(N2C(=S)N(c3ccc(F)cc3)C3CS(=O)(=O)CC32)cc1 (stereo not given)	4	0
O=c1cc(CSc2nc3ncccc3[nH]2)nc2ccccn12	-7	-9
O=C(CSCc1ccccc1)N1CCN(c2ncnc3c2nnn3Cc2ccccc2)CC1	-8	-14
Fc1ccc(-c2cn3cccnc3n2)cc1	2	5
O=c1c2[nH]c3ccc(F)cc3c2ncn1Cc1ccccc1	-2	-7
CCOc1ccc(S(=O)(=O)NCCc2csc3nc(-c4ccc(C)cc4)nn23)cc1	-10	-9
CCCOC(=NC1CCCc2ccccc21)NC(=O)c1cccc(F)c1 (stereo not given)	-2	6
COCCNCc1nccn1Cc1c(F)cccc1Cl	3	10
O=C(NC(Cn1ccnc1)c1ccccc1)c1ccc2[nH]c(=O)[nH]c2c1 (stereo not given)	-2	2
COCCNC(=O)C1(C)CCN(CCC(=O)c2ccc(Br)cc2)C1 (stereo not given)	11	4

An excerpt (hit frequency here may not be typical).
